Source: PubChem BioAssay (Center for Chemical Genomics, University of Michigan)
CDC25B-CDK2 inh – human CDC25B-CDK2/CyclinA binding inhibition | P30305+P24941 | z-score (concentration not given with the values) | HTRF CDC25B-CDK2/CyclinA binding, anti-His/anti-Flag; hits give high values | 94,000 compounds, 0.72% hits;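 also: score is relative to mean and SD of negative controls; strong numbers were not always called active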
HIV TAR-Tat – HIV-1 TAR-Tat binding disruption; AID 1259389; 100,000 compounds, 0.6% hits; z-score (test concentration not listed); HIV-1 TAR RNA, Tat peptide displacement FRET; hits give high values;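 also: score is relative to mean and SD of negative controls; some compounds called inactive have numbers as strong as hits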
An asterisk follows results filed as active; nt = not tested or not shown.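 The calls were made as follows: active = z-score from 3 up in half or more of its runs; inactive = the rest.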

SMILES	CDC25B-CDK2 inh	HIV TAR-Tat
Cc1cc(-c2ccc(=O)[nH]n2)cc(S(=O)(=O)NC2CCCCC2)c1C	nt	2.4
O=C1c2ccccc2S(=O)(=O)N1Cc1csc(-c2ccc(Cl)cc2)n1	-1.2	nt
COc1ccc(C2Sc3ccccc3NC3=C2C(=O)c2ccccc23)c(OC)c1 (centres undefined)	-0.63	-0.95
O=C(Nc1ccc(O)c(-c2nc3ccccc3o2)c1)c1ccc(-c2ccc(Cl)cc2)o1	-5.7	nt
c1ccc(-n2nnnc2N2CCNCC2)cc1	-1.4	0.55
O=C(O)CCC(=O)CCC(=O)c1ccc(F)cc1	0.34	0.48
CCn1cc(S(=O)(=O)c2ccc(Cl)cc2)c(=O)c2cc(F)c(N3CCOCC3)cc21	nt	8.3
CC(=O)N1c2ccc(S(=O)(=O)NC(C(=O)NC3CCCC3)C(C)C)cc2CC1C (centres undefined)	nt	-0.19
COc1ccc(OCCNC(=O)c2ccc(OC(F)(F)F)cc2)cc1	-1.4	nt
CC(=O)Nc1ccc(/C(N)=N/O)cc1	-1.1	nt
CCN(CC)c1ccc(NC(=O)CCc2c(C)nc3c4c(C)cc(C)nc4nn3c2C)c(C)c1	-0.09	6.4*
CN1CSC2=C(C#N)C(c3cccc(OCc4ccccc4)c3)CC(=O)N2C1 (centres undefined)	3.4*	-1.9
Cc1ccc(C2CC(=O)C3=C(C2)Nc2ccccc2NC3c2ccc3c(c2)OCO3)cc1 (centres undefined)	-1.9	0.93
Cc1cccc(NS(=O)(=O)c2ccc(/C=C/c3onc(C)c3[N+](=O)[O-])s2)c1	nt	1.4
C=CCN1C(=O)C(O)(CC(=O)c2ccc3c4c(cccc24)CC3)c2ccccc21 (centres undefined)	-0.42	nt
O=C(C1CCCN(c2ncnc3c2nc2n3CCCCC2)C1)N1CC=C(c2ccccc2)CC1 (centres undefined)	nt	1.5
CCOC(=O)CSc1nc2c(cc1C#N)CCCC2	-2	0.88
CCOC(=O)c1cnn(C(=O)Cc2cccc(OC)c2)c1N	-2.2	nt
Nc1nc(CSc2nnc3c(n2)[nH]c2ccccc23)cs1	-0.34	1.7
O=C(Nc1cc(F)ccc1F)N1CCC2(CC1)Nc1cc(F)ccc1-n1cccc12	nt	-1
COc1ccc(-c2c3c(=O)n(C)c(=O)n(C)c3c3n2-c2ccccc2NC3c2ccco2)cc1 (centres undefined)	-0.75	2.2
O=C(CCCNS(=O)(=O)c1ccc2c(c1)CCCC(=O)N2)NCCC1=CCCCC1	nt	2.5
Cc1c(C(=O)N2CCOCC2)c(S(=O)(=O)Nc2cc(F)ccc2F)c(C)n1C	nt	-1.1
Cc1ccc(NS(=O)(=O)c2ccc3c(c2)NC(=O)CC(C)S3)c(Br)c1 (centres undefined)	nt	0.21
Cc1ncc(-c2ccc(C)c(S(=O)(=O)Nc3cccc(Br)c3)c2)o1	nt	0.47
O=C(O)c1cnn(-c2ccccc2)c1-c1ccncc1	-1.1	0.64
COc1ccc(-c2cc(-c3nc(-c4ccc5c(c4)OCO5)no3)[nH]n2)cc1	nt	1.1
O=C(O)C1CC(=O)N(C2CCCC2)C1 (centres undefined)	nt	1.1
CS(=O)(=O)c1ncc(Cl)c(C(=O)N(Cc2cccc(Cl)c2)C2CCS(=O)(=O)C2)n1 (centres undefined)	1.4	0.74
O=c1c(CN2CCOCC2)c[nH]c2ccccc12	0.23	1.1
CC(=O)N1CCc2cc(S(=O)(=O)NC(C(=O)Nc3ccc(Br)cc3)C(C)C)ccc21 (centres undefined)	-0.25	nt
O=C(OCc1cc(=O)n2c3c(sc2n1)CCCC3)c1ccc(Cl)cc1	nt	-0.53
O=c1c(/C=N/NS(=O)(=O)c2ccc(Cl)cc2)coc2ccc(Cl)cc12	-0.75	nt
O=C(O)C1C(=O)NCC1c1ccccc1 (centres undefined)	-2.6	1.2
Cc1cc(F)ccc1-n1nnc(C(=O)O)c1C	-0.79	4.4
COc1ccccc1C(Nc1ccccn1)c1c(C)[nH]c2ccccc12 (centres undefined)	-0.4	nt
Cc1[nH]nc(-n2cnnc2)c1NC(=O)C1CC1	-2.9	-0.96
CCOC(=O)c1c(NC(=O)CC)sc2c1CCC(C)C2 (centres undefined)	0.76	nt
CC(Oc1ccccc1)C(=O)N[C@@H]1C(=O)N2[C@@H]1SC(C)(C)[C@@H]2C(=O)O (some centres undefined)	nt	0.64
CCCN1CCCC(NC(=S)Nc2ccc(Br)cc2C)C1 (centres undefined)	-2.3	nt
COc1ccc(C(=O)/C=C/OC(=O)c2ccc(Cl)cc2)cc1	-1.8	nt
C#CCSc1nc2c(c(=O)[nH]1)C(c1cccc(O)c1)CC(=O)N2 (centres undefined)	-1.4	1
Cc1ccc(C)c(C(=O)CC2(O)C(=O)Nc3ccccc32)c1 (centres undefined)	-0.79	-1
COC(=O)C1=C(C)N=C2SCCC(=O)N2C1c1ccc(Cl)cc1 (centres undefined)	-1.5	-0.73
CN(CCCNC(=O)Cn1c(=O)c2cccn2c2ccc(F)cc21)C1CCCCC1	nt	1.1
Cc1nc(SCc2cc(=O)n3nc(C(C)C)sc3n2)n[nH]1	nt	0.67
Cc1ccc(S(=O)(=O)c2cn(C)c3cc(N4CCN(C)CC4)c(F)cc3c2=O)cc1	nt	0.9
Cc1ccccc1OCc1nnc2c3cnn(-c4ccccc4)c3ncn12	-1.8	0.15
CC1CCN(S(=O)(=O)c2ccc3c(c2)N(CC(=O)N2CCN(C)CC2)C(=O)CS3)CC1	-0.73	-0.35
CC(=O)Oc1ccc2nc(-c3cccc(C)c3)oc(=O)c2c1	-0.31	0.94

The listing continues.
SMILES	CDC25B-CDK2 inh	HIV TAR-Tat
Cc1ccc2c(c1)C1C=CCC1C(C(=O)O)N2 (centres undefined)	-1.1	5.2
Cc1[nH]c2ccccc2c1SCc1n[nH]c(=S)n1C	-0.93	nt
Cn1c(=O)sc2cc(Nc3nc4ccccc4c4nncn34)ccc21	nt	-0.13
CCc1nnc(SCc2cn3ccccc3n2)c2cc3sccc3n12	nt	2.8
O=C(NCc1ccccn1)C1CCCN(S(=O)(=O)N2CCCC2)C1 (centres undefined)	nt	1.6
CC(=O)Nc1ccc(CC(C#N)C#N)cc1	-0.52	nt
Cc1cccc(-n2c(C)nnc2SCc2nc(-c3ccccc3C)no2)c1	-1.8	-1.9
Cc1cn2c(=O)c(S(=O)(=O)NCc3ccccc3Cl)c(C)nc2s1	nt	-1.1
Cc1cn2c(=O)cc(COc3ccc(C)c(C)c3)nc2s1	0.45	0.43
CCOc1cc(C2C(C(=O)OCc3ccc(OC)cc3)=C(C)NC3=C2C(=O)CCC3)cc(Cl)c1O (centres undefined)	-1.1	1.5
O=C(Nc1cccc(Cl)c1)C1CC(=O)N(c2cccc(-c3noc(C4CCC4)n3)c2)C1 (centres undefined)	nt	1
COc1cc(NC(=O)NCc2c(-n3cccc3)sc3c2CCCC3)cc(OC)c1	-0.51	1.9
CCN1CCN(c2nc3c(c(=O)n(C)c(=O)n3C)n2CC(O)c2ccccc2)CC1 (centres undefined)	-2.1	-0.97
CCN(CCCN=C1NS(=O)(=O)C(c2ccc(F)cc2)=C1C)Cc1ccccc1	nt	9.2
Cc1cccc(-n2ccc(=O)c(C(=O)Nc3sc4c(c3C(=O)NCC3CCCO3)CCC4)n2)c1 (centres undefined)	0.18	2.6
Cc1ccc(NC(=O)CSc2nnc(C)n3c2cc2oc(C)cc23)c(C)c1	nt	1.6
O=C(O)CSc1nnc(-c2cccnc2)o1	-1.9	4
CCOC(=O)C1=C(CC)NC2=C(C(=O)CC(C)(C)C2)C1c1cc(OC)ccc1OC (centres undefined)	-1.9	-0.24
CC1=NN(c2ccccc2)C(=O)C1C1C(=O)N(c2ccccc2)N=C1C (centres undefined)	-1.9	0.8
Cc1ccc(C)c(S(=O)(=O)N(CCS(=O)(=O)N2CCNCC2)CC2CCCO2)c1 (centres undefined)	nt	1.4
O=c1c2sccc2nc(SCc2cc(=O)n3ccccc3n2)n1CCCN1CCCCC1	-1.2	nt
COc1ccc(OC)c(C2C(C(=O)OC3CCCCC3)=C(C)NC3=C2C(=O)CC(C)(C)C3)c1 (centres undefined)	-1.2	-1.1
Fc1cccc(-c2nn3c(C(F)(F)F)nnc3s2)c1	-1.3	-0.68
CCc1nn2c(=O)cc(COC(=O)c3ccc4c(c3)OCO4)nc2s1	nt	0.79
O=C(NCc1ccco1)[C@H](CSCc1ccccc1)N1Cc2ccccc2C1=O	0.44	nt
S=C(NC1CCCCC1)NC1CCCC1	-1.1	nt
CN(C)CCCN1C(=O)c2oc3ccc(Cl)cc3c(=O)c2C1c1ccc(Cl)cc1 (centres undefined)	1	0.06
Cc1nn(Cc2nnc(-c3cccs3)o2)c(C)c1Br	-1.1	nt
O=S(=O)(Nc1ccc2c(c1)nc1n2CCN(Cc2ccccc2)C1)c1ccccc1	0.47	nt
COc1cc(Cl)cc2c1OC=CC(C(=O)Nc1ccc(N3CCOCC3)cc1)=C2	-2.4	-3

15 compounds from above, sorted by length of the SMILES, descending.
SMILES	CDC25B-CDK2 inh	HIV TAR-Tat
COc1ccc(OC)c(C2C(C(=O)OC3CCCCC3)=C(C)NC3=C2C(=O)CC(C)(C)C3)c1 (centres undefined)	-1.2	-1.1
Cc1cccc(-n2ccc(=O)c(C(=O)Nc3sc4c(c3C(=O)NCC3CCCO3)CCC4)n2)c1 (centres undefined)	0.18	2.6
CCOC(=O)C1=C(CC)NC2=C(C(=O)CC(C)(C)C2)C1c1cc(OC)ccc1OC (centres undefined)	-1.9	-0.24
Cc1ccc(C)c(S(=O)(=O)N(CCS(=O)(=O)N2CCNCC2)CC2CCCO2)c1 (centres undefined)	nt	1.4
CCN1CCN(c2nc3c(c(=O)n(C)c(=O)n3C)n2CC(O)c2ccccc2)CC1 (centres undefined)	-2.1	-0.97
CN(C)CCCN1C(=O)c2oc3ccc(Cl)cc3c(=O)c2C1c1ccc(Cl)cc1 (centres undefined)	1	0.06
O=S(=O)(Nc1ccc2c(c1)nc1n2CCN(Cc2ccccc2)C1)c1ccccc1	0.47	nt
COc1cc(Cl)cc2c1OC=CC(C(=O)Nc1ccc(N3CCOCC3)cc1)=C2	-2.4	-3
O=c1c2sccc2nc(SCc2cc(=O)n3ccccc3n2)n1CCCN1CCCCC1	-1.2	nt
O=C(NCc1ccco1)[C@H](CSCc1ccccc1)N1Cc2ccccc2C1=O	0.44	nt
CC1=NN(c2ccccc2)C(=O)C1C1C(=O)N(c2ccccc2)N=C1C (centres undefined)	-1.9	0.8
CCc1nn2c(=O)cc(COC(=O)c3ccc4c(c3)OCO4)nc2s1	nt	0.79
Fc1cccc(-c2nn3c(C(F)(F)F)nnc3s2)c1	-1.3	-0.68
Cc1nn(Cc2nnc(-c3cccs3)o2)c(C)c1Br	-1.1	nt
O=C(O)CSc1nnc(-c2cccnc2)o1	-1.9	4

The list goes on.
SMILES	CDC25B-CDK2 inh	HIV TAR-Tat
COc1ccc(OCc2nnc(SCc3cc(=O)c4cccc(OC)c4[nH]3)n2C)cc1	nt	0.39
CCCCn1c(=O)[nH]c2c(c1=O)C(C)(C)Cc1ccccc1-2	-1.8	0.84
C=CCNC(=O)CN(C)c1nn2c(=O)cc(CCC)nc2s1	-0.48	1.2
O=C(Nc1ccccc1)O/N=C1/CCCc2occc21	-1.9	nt
CSc1ccc(CN2CCN(C3CCN(Cc4ccccc4)CC3)CC2)cc1	-0.67	1
CNC(=O)c1c(NC(=O)c2ccc(S(=O)(=O)N3CCCCC3)cc2)sc2c1CCC2	nt	-2.8
CN(C)c1nc(N2CCOCC2)ncc1F	0.14	-0.68
COc1ccc(CN(C(=O)c2nc(SC)ncc2Cl)C2CCS(=O)(=O)C2)cc1 (centres undefined)	-1.2	2.3
Cc1ccc(C2=NC3(CCCCCC3)NC2=O)cc1	-0.86	nt
CC1C(=O)N2CCCc3cc(S(=O)(=O)Nc4ccc(F)c(F)c4)cc1c32 (centres undefined)	nt	0.5
NC(=O)c1cc(S(=O)(=O)N2CCC(c3ccccc3)C2)cs1 (centres undefined)	nt	0.62
CCC(=O)N1c2ccccc2CC1C(=O)N1CCN(c2ncccn2)CC1 (centres undefined)	nt	1.5
O=C1/C(=C/c2c3ccccc3nc3ccccc23)Sc2ccccc21	-4.3	nt
CSc1nc(-c2cnccn2)nc(-c2ccco2)c1C#N	-1.7	nt
COc1ccc(OC)c(CCOS(=O)(=O)c2ccc(C)cc2)c1	0.05	nt
O=C(O)c1c2c(nc3ccc(S(=O)(=O)N4CCC(C(=O)NC5CC5)CC4)cc13)CCCCC2	-0.77	-0.33
CCn1c(SCC(=O)NC2CCCC2)nnc1-c1nonc1NC(C)=O	-2.4	1.3
O=C(Nc1nc(-c2ccc(Br)cc2)cs1)c1c(O)c2cccc3c2n(c1=O)CCC3	nt	1.5
Cc1cc(Cl)ccc1Nc1c(-c2ccc3c(c2)CCCC3)c(=O)c1=O	nt	-0.33
COc1ccccc1OCc1nc(-c2ccc(Br)cc2)no1	-2	-2.3
Cc1ccc(NC(=O)Nc2c[nH]c(=O)[nH]c2=O)c(Cl)c1	nt	0.56
COc1cc(OC)cc(-c2nnc(SCC(=O)N3CCOCC3)o2)c1	-0.83	0.66
Cc1cc(C)cc(C(=O)Nc2cc(-c3cn4cccnc4n3)ccc2C)c1	-0.51	nt
Cc1cc(C)c(C#N)c(SCC(=O)NC2CC2)n1	1.4	nt
O=C(CCCn1c(=O)c2cccn2c2cccnc21)Nc1ccccc1Br	nt	2
COc1cccc(C2C(C#N)=C(N)Oc3n[nH]c(-c4ccc5c(c4)OCO5)c32)c1 (centres undefined)	-2.6	nt
c1nc(N2CCCCC2)c2c3c(sc2n1)CCCC3	0.5	nt
O=C(O)C1CCN(c2ccc(S(=O)(=O)N3CCOCC3)cc2Cl)CC1	1.7	0.92
O=c1[nH]c(-c2ccc(F)cc2)nc2c1Cc1cc(Cl)ccc1O2	-1.7	2.9
O=S(=O)(NCC(c1ccco1)N1CCN(c2ccc(F)cc2)CC1)c1ccc2c(c1)OCCO2 (centres undefined)	nt	0.96
O=C(NCc1csc(-c2cccs2)n1)C1CCN(C(=O)CCC2CCCC2)CC1	nt	0.91
Cc1nn(C)c(C)c1S(=O)(=O)NC1CCCCNC1=O (centres undefined)	-1.3	nt
